Mtb MenB inh: inhibitors of Mycobacterium tuberculosis MenB enzyme; MenB enzyme assay, absorbance read-out; some hits fall short of the stated cut; inhibition, %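 (about 12 µg/mL by stock and volumes)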; 100,000 compounds, 0.43% hits;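 active means mean of two replicates above 30%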;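 further: 0% = no compound and 100% = wells with inactive enzyme; the first replicate is given; strong numbers were not always called active; inactives centre near -10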
Target sequence (P9WNP5 whole entry, looked up): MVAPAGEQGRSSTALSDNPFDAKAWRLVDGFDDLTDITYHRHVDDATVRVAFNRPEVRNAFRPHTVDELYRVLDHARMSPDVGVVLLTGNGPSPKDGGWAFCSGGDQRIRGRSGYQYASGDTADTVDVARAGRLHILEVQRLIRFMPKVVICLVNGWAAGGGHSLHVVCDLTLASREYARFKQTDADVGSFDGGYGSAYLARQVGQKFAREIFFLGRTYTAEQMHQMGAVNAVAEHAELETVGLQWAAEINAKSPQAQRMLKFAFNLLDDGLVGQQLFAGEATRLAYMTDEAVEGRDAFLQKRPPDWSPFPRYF
Mtb MbtI inh: MbtI salicylate synthase inhibition; inhibition, %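 (about 17 µg/mL by stock and volumes)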; 100,000 compounds, 0.89% hits; purified MbtI enzyme, fluorescence intensity read-out; AID 493033;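 active means above 50% in both replicates, above 80% if mildly self-fluorescent; inactive means the rest, strongly fluorescent compounds included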;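 further: 0% = mean of negative and 100% = mean of positive controls; one replicate is shown; some compounds called inactive have numbers as strong as hits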
PV pol inh: inhibitors of poliovirus RNA polymerase binding and polymerization | % elongation, % (compound at 16.7 µg/mL) | poliovirus polymerase elongation, fluorescence polarization; stronger effect = lower value | P03300 | 150,000 compounds, 0.66% hits; in the data active means % elongation below about 90%; further: some results filed as inactive read as strong as hits
Target sequence (P03300 1749-2209 limits assumed): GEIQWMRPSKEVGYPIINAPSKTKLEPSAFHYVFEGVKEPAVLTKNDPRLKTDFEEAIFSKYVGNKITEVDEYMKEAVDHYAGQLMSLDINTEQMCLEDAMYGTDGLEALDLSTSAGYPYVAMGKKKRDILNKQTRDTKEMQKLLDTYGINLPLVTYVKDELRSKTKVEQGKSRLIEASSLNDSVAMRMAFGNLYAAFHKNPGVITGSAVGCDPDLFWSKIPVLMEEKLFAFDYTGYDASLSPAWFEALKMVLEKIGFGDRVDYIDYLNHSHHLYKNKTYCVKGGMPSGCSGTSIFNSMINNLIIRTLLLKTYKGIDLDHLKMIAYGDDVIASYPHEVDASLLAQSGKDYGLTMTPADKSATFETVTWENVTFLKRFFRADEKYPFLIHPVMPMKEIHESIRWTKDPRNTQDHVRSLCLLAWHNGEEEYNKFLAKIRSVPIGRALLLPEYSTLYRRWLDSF
PV pol inh intensity: recorded beside PV pol inh, whose call it bears; % elongation; measured here: total intensity read-out; formula for this scale not given here;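 total fluorescence in place of polarization; lower means less elongation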
The depositor's hits bear a star; · = no result given.

Results follow in this order: Mtb MenB inh, Mtb MbtI inh, PV pol inh, PV pol inh intensity
> CCCc1c(C(=O)Nc2cc(-c3ccccc3)nn2C)cnn1-c1ccccc1
    -14, -6, 102, 101
> Cc1cc(=O)n2nc(N3CCCC(C(=O)N4CCN(c5ccccc5)CC4)C3)sc2n1 (stereo not drawn)
    -2, 0, 101, 105
> Cc1ccc2[nH]c(=O)cc(C(=O)OCC(=O)c3ccc(F)cc3)c2c1
    -5, ·, 107, 106
> CCc1nc(SCC(=O)Nc2cc(C)on2)n[nH]1
    -5, ·, 107, 112
> CCC1SC(CC)C(=O)N(CC(=O)Nc2ccc(F)cc2F)C1=O (stereo not drawn)
    -2, -12, 102, 103
> CCNc1sc(C(=O)OCC)c(N)c1C#N
    -8, 18, 102, 100
> COc1nc2ccccc2cc1/C=C/C(=O)O
    -11, 103, 105, 116
> CC(C)OC(=O)c1cc2c(ccn2-c2ccc(F)cc2)n1C
    18, 90, 102, 102
> COC(=O)C12C3CCC4C5C3C1C5(C(=O)OC)C42 (stereo not drawn)
    12, 2, 101, 105
> Cc1cc(C(=O)NC(C)c2ccccc2)c(C)o1 (stereo not drawn)
    3, -3, 101, 101

Single records (already shown). Values in the order: Mtb MenB inh, Mtb MbtI inh, PV pol inh, PV pol inh intensity
Record of Cc1cc(C(=O)NC(C)c2ccccc2)c(C)o1 (stereo not drawn) : 3, -3, 101, 101
Record of Cc1cc(=O)n2nc(N3CCCC(C(=O)N4CCN(c5ccccc5)CC4)C3)sc2n1 (stereo not drawn) : -2, 0, 101, 105
Record of CCC1SC(CC)C(=O)N(CC(=O)Nc2ccc(F)cc2F)C1=O (stereo not drawn) : -2, -12, 102, 103
Record of CC(C)OC(=O)c1cc2c(ccn2-c2ccc(F)cc2)n1C : 18, 90, 102, 102
Record of COc1nc2ccccc2cc1/C=C/C(=O)O : -11, 103, 105, 116

The list goes on.
Results follow in this order: Mtb MenB inh, Mtb MbtI inh, PV pol inh, PV pol inh intensity
> CCOc1cc(-c2nn3c(-c4ccoc4C)nnc3s2)cc(OCC)c1OCC
    -32, 69, 101, 106
> O=C1S/C(=C\C=C\c2ccco2)C(=O)N1CCCc1ccccc1
    -81, -3, 98, 102
> CCn1c(C)c(C)c2cc(C(=O)NCCN3CCN(C)CC3)ccc21
    0, -25, 103, 111
> O=C(O)c1cccc(NNC(=O)c2ccc3c(c2)OCCO3)c1
    0, 16, 102, 95
> O=C(CCN1C(=O)COc2ccccc21)NC1CCCCCC1
    5, -4, 101, 100
> CC1SCC(NC(=O)Nc2ccc(Cl)cc2)CS1 (stereo not drawn)
    -1, -3, 110, 112
> CCc1c(C)nc2cc(-c3ccc(OC)c(OC)c3)nn2c1NCC(C)(C)CN(C)C
    -18, 14, 103, 107
> CCC1(COC(NC(=O)c2ccc(Cl)cc2Cl)(C(F)(F)F)C(F)(F)F)COC1
    -35, -7, 103, 106
> COCC(=O)N(C)C1(c2nnnn2CCOC(=O)Nc2ccc(Cl)cc2)CCCC1
    -16, -13, 101, 102
> COC(=O)c1ccc(Nc2nc(-c3ccc(Br)cc3)c(C)s2)cc1
    -18, ·, 105, 108
> CC(=O)N/C(=C/c1ccccc1Br)C(=O)NCc1ccc(C)cc1
    -4, -8, 103, 105
> Cc1ccc(C)c(CSC2=NCCN2C(=O)c2ccc(S(=O)(=O)N3CCOCC3)cc2)c1
    -18, 3, 100, 96
> CCN(CC)C(=O)C1CC(c2ccccc2OC)=NO1 (stereo not drawn)
    0, 120, 102, 104
> C=CCN1C(=O)/C(=C\c2cccs2)SC1=Nc1ccccc1
    -19, ·, 106, 101
> Cc1c(C#N)c(NC(=O)CN2CCc3ccccc3C2)n(Cc2ccco2)c1C
    -7, -1, 104, 110
> CC12C/C(=C\c3ccccc3)C(=O)C[C@@H]1CCC1C2CCC2(C)C1CC[C@]2(C)O (stereo partly drawn)
    -3, -4, 108, 104
> CCc1ccccc1NC(=O)CC(O)(C(=O)OC)C(F)(F)F (stereo not drawn)
    -6, -11, 100, 104
> O=C(NC1CC1)c1ccc(CN2C(=O)CCn3nc(-c4ccccc4)cc32)cc1
    3, -21, 102, 103
> COc1ccc(NC(=O)c2ccco2)cc1OC
    2, ·, 108, 110
> Cc1ccc(OCC(O)CN2C(C)CCCC2C)c(C)c1 (stereo not drawn)
    -5, 9, 100, 104
> Cc1cc(C(=O)COn2nnc3ccc(S(C)(=O)=O)cc32)c(C)n1C
    -40, -9, 101, 106
> N#CCN(CC#N)C(=O)Cc1coc2ccc3ccccc3c12
    -83, 5, 100, 102
> CN1C(=O)C(C#N)=C(c2ccccc2)/C(=C/c2ccc(-c3ccc(F)cc3)o2)C1=O
    -5, 42, 105, 104
> Cc1cc(-c2onc(C)c2C(=O)Sc2ccccc2)no1
    -11, 33, 101, 101
> O=C(Nc1nccs1)c1cccc(N2C(=O)C3C4C=CC(C4)C3C2=O)c1 (stereo not drawn)
    0, 11, 101, 101
> COc1cccc(C2=Nc3ccccc3C2=O)c1
    ·, 6, 101, 104
> CCNc1nnc(-c2ccc(C)cc2)s1
    -9, ·, 100, 102
> O=C1C=C(N2CCOCC2)C(=O)N1c1ccc(Cl)cc1
    -31, ·, 107, 109
> NC1(C(=O)O)CCCCC1
    -29, -17, 105, 106
> COC(=O)Cc1c(C)c2cc(Cl)c(O)cc2oc1=O
    -70, 116, 102, 102
> O=C(NO)c1cccc2c1-c1ccccc1/C2=N/O
    -10, ·, 99, 106
> NNC(=O)c1cc(C23CC4CC(CC(C4)C2)C3)[nH]n1
    -15, ·, 100, 105
> Nc1ccc(OC(F)F)cc1
    -14, -11, 104, 98
> CC1=CCC2C(=O)N(c3ccc(C4CCCCC4)cc3)C(=O)C2C1 (stereo not drawn)
    3, -15, 103, 106
> CCC[C@@H]1C[C@@H](C(=O)N[C@H]([C@H]2O[C@H](SC)[C@H](O)[C@@H](O)[C@H]2O)[C@H](C)O)N(C)C1
    3, -18, 101, 101
> CC(C)CC(=O)Nc1nn2c(COc3ccccc3)nnc2s1
    -38, 22, 99, 100
> CCOC(=O)c1sc(I)c(C#N)c1C
    -14, -14, 109, 120
> CCCNC(=O)CC1Oc2ccccc2NC1=O (stereo not drawn)
    6, -6, 103, 106
> CN(C)c1ccc(N/C=C/C(=O)c2ccco2)cc1
    -341, -3, 104, 103
> O=C(Cc1ccc(S(=O)(=O)N2CCOCC2)s1)Nc1ccccc1N1CCOCC1
    0, 1, 108, 103
> Cc1ccnc(NCc2cccc3ccccc23)c1
    18, 8, 100, 99
> OC1(C(F)(F)F)CC(/C=C/c2ccc3c(c2)OCO3)=NN1 (stereo not drawn)
    4, -343, 101, 101
> Cc1ccc(C(=O)OC(C)C(=O)NC2CCCCC2)cc1S(=O)(=O)N1CCCCC1 (stereo not drawn)
    -18, -10, 106, 110
> COc1ccc(OC)c2c1CC(C)(C)NC2=O
    -21, ·, 103, 107
> Nc1ccc(-c2ccccc2C(=O)O)cc1
    0, -5, 99, 103
> CCOc1cc(/C=C(\C#N)C(=O)NCc2ccco2)ccc1O
    -84, 29, 107, 104
> CCOC(=O)c1ccc(NC(=O)CN2N=C(c3ccc(OC)cc3)CCC2=O)cc1
    -3, 1, 102, 105
> CC1=C(C#N)C(C(F)(F)F)(C(F)(F)F)N=C(Cc2ccccc2)N1
    -12, 1, 102, 105
> CCCCC1(O)CC(C)(C)N([O])C(C)(C)C1
    44*, -9, 100, 103
> N#CCc1nc2n(n1)Cc1ccccc1-2
    ·, 5, 101, 105

Later entries
Results follow in this order: Mtb MenB inh, Mtb MbtI inh, PV pol inh, PV pol inh intensity
> CC12CC[C@@H](O)CC1CCC1C2CCC2(C)C(C(=O)O)CCC12 (stereo partly drawn)
    ·, -10, 103, 107
> Cc1cc(NC(=O)Nc2ccc(Cl)cc2)n(-c2ccccc2)n1
    3, -15, 103, 103
> O=C(O)/C(=C\c1ccncc1)c1ccc(S(=O)(=O)N2CCCCC2)s1
    -26, 1, 99, 84
> O=S(=O)(c1cccc(-c2nnc(-c3ccccc3)o2)c1)N1CCCC1
    -21, -6, 99, 105
> Cc1nnc2ccc(NCCC3=CCCCC3)nn12
    1, -8, 100, 103
> N#Cc1ccccc1N/C=C(\C(N)=S)C(F)(F)F
    -5, ·, 108, 110
> COc1ccc(NC(=O)CSCc2nc(-c3ccc(C(C)C)cc3)no2)cc1
    -51, 24, 105, 90
> O=C(O)Cn1cc(C=C2C(=O)NC(=O)NC2=O)c2ccccc21
    -249, ·, 111, 111
> CC(=O)N1N=C2CCCCC2C1C(C)C (stereo not drawn)
    4, -2, 100, 101
> CCCCN(CC)C(=O)Nc1ccc2c(c1)N(CC)C(=O)c1ccccc1S2
    -8, -11, 104, 94
> CC(=O)Oc1ccc2cc(-c3nc4ccccc4n3C)c(=O)oc2c1
    -33, -50, 101, 117
> CCOC(=O)c1ccc(NC(=O)C2CC(=O)N3CCCN=C3S2)cc1 (stereo not drawn)
    -136, -4, 101, 104
> O=C(Nc1ccc(Cl)cc1)C1(S(=O)(=O)c2ccc(Cl)cc2)CC1
    -7, -3, 101, 99
> CCc1nnc(NC(=O)c2cc(S(=O)(=O)N3CCc4ccccc43)cn2C)s1
    16, -5, 102, 108
> CCCN1C(=O)C(O)(C2CC(=O)CC(C)(C)O2)c2ccccc21 (stereo not drawn)
    6, 18, 102, 108
> Cc1ccccc1C(=O)OCC1CCCN2CCCCC12 (stereo not drawn)
    -17, ·, 107, 111
> O=C(/C=N/OCc1cc(=O)n2ccsc2n1)Nc1cccc(C(F)(F)F)c1
    -4, -9, 107, 111
> COc1ccccc1NC(=O)c1nnc2c(-c3ccccc3)c(C)nn2c1C
    -11, -8, 101, 104
> CN(C(=O)c1ccco1)c1ccccc1C(=O)O
    28, 0, 102, 101
> O=C(/C=C/c1ccc(Cl)cc1)Nc1cccc(Cl)c1
    -29, -2, 105, 110

Some of the entries so far, with each value named:
Cc1ccc(OCC(O)CN2C(C)CCCC2C)c(C)c1 (stereo not drawn)
  Mtb MenB inh: -5	Mtb MbtI inh: 9	PV pol inh: 100	PV pol inh intensity: 104

Cc1cc(C(=O)COn2nnc3ccc(S(C)(=O)=O)cc32)c(C)n1C
  Mtb MenB inh: -40	Mtb MbtI inh: -9	PV pol inh: 101	PV pol inh intensity: 106

N#CCN(CC#N)C(=O)Cc1coc2ccc3ccccc3c12
  Mtb MenB inh: -83	Mtb MbtI inh: 5	PV pol inh: 100	PV pol inh intensity: 102

CN1C(=O)C(C#N)=C(c2ccccc2)/C(=C/c2ccc(-c3ccc(F)cc3)o2)C1=O
  Mtb MenB inh: -5	Mtb MbtI inh: 42	PV pol inh: 105	PV pol inh intensity: 104

Remaining list, next part:
Results follow in this order: Mtb MenB inh, Mtb MbtI inh, PV pol inh, PV pol inh intensity
> CC(c1nnnn1CCc1ccccc1)N1CCN(c2cccc(C(F)(F)F)c2)CC1 (stereo not drawn)
    -33, 5, 100, 101
> O=C(O)c1c(-c2ccccc2)[nH]n(-c2ccccc2)c1=O
    ·, -11, 101, 107
> O=C1CC(c2ccccc2)c2c(c3ccccc3[nH]c2=O)O1 (stereo not drawn)
    -16, 16, 103, 101
> O=C(OCC1COc2ccccc2O1)c1cc2ccccc2[nH]1 (stereo not drawn)
    -22, 60, 100, 106
> O=c1[nH]nc(-c2cccc(Br)c2)[nH]1
    -11, ·, 104, 110
> O=C(N/N=C/c1c(O)ccc2ccccc12)c1ccccn1
    -116, -7, 76, 192
> N#C/C(=C\c1ccccc1)C(=O)N1CCN(Cc2ccccc2)CC1
    -15, 12, 104, 98
> CC(=O)N1CCN(C(=O)C2CC(=O)N(Cc3ccc(C)cc3)C2)CC1 (stereo not drawn)
    -10, -6, 102, 109
> Cc1ccc(C(CC(=O)Nc2ccccn2)N2Cc3ccccc3C2=O)cc1 (stereo not drawn)
    -37, -12, 106, 99
> COc1ccc(-c2nc3c(c(=O)c4ccccc4n3C)c(=O)n2Cc2ccco2)cc1
    -19, -9, 101, 103
> Cc1noc(C)c1CSc1n[nH]c(=O)n1Cc1ccco1
    5, 2, 104, 103
> COC(=O)c1c(C)c(Cl)c(C)c(Cl)c1OC
    0, 2, 103, 98
